A1 apoptosis 2 – blocks A1, raising caspase activity; MEF A1-2A-BIM cells, caspase-Glo luminescence, 3 h; percent of clofoctol response, DMSO zero; caspase activation, % (test concentration not listed); 24,000 tested, under 10 active; in the data active = caspase activation above about 5.9%;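 note: wells of about 30 µL received 50 nL stock; the first replicate is given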
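Material: mouse embryonic fibroblasts co-expressing A1 and BIM (A1-2A-BIM), primed for A1 dependence / Quantity: 2500 cells/well / Buffer or medium: RPMI-1640 growth medium with 10% FBS / Doses: 50 nL compound per well, pinned / Schedule: 3 h compound exposure at 37 °C / Signal: Caspase-Glo luminescence (DEVD substrate) / Measure: Caspase-3/7 activation, seen as rise in luminescence signal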
* marks the source's active call; other numbers are inactive results.

SMILES | A1 apoptosis 2
CC(C)NC(=O)Nc1cccc2c1O[C@@H](CN(C)Cc1ccc(C(=O)Nc3ccccc3N)cc1)[C@@H](C)CN([C@H](C)CO)C2=O | -2.0
C[C@H]1CN([C@@H](C)CO)C(=O)Cc2cc(NC(=O)Nc3ccc(F)cc3)ccc2O[C@H]1CN(C)Cc1ccc(Cl)c(Cl)c1 | 2.0
C[C@H]1CN([C@@H](C)CO)C(=O)c2cccc(NS(C)(=O)=O)c2O[C@@H]1CN(C)C(=O)Nc1ccccc1 | -1.3
COc1ccc(S(=O)(=O)Nc2ccc3c(c2)C(=O)N([C@H](C)CO)C[C@H](C)[C@H](CN(C)S(=O)(=O)c2ccc(OC)cc2)O3)cc1 | 1.7
C[C@H](CO)N1C[C@H](C)[C@@H](CN(C)C(=O)Nc2ccccc2)OCCCC[C@H](C)Oc2ccc(NC(=O)CCC(F)(F)F)cc2C1=O | 0.8
C[C@H](CO)N1C[C@H](C)[C@H](CN(C)S(=O)(=O)c2cn(C)cn2)Oc2ccc(NS(=O)(=O)c3ccc(F)cc3)cc2CC1=O | -0.1
C[C@H](CO)N1C[C@H](C)[C@@H](CN(C)C(=O)Nc2ccccc2)Oc2ccc(NS(C)(=O)=O)cc2CC1=O | 0.0
C[C@@H]1CN([C@H](C)CO)C(=O)c2cc(NS(=O)(=O)c3ccccc3)ccc2O[C@@H](C)CCCCO[C@H]1CN(C)C(=O)Nc1ccc(F)cc1 | -0.2
C[C@H]1CN([C@@H](C)CO)C(=O)c2cc(NC(=O)C3CC3)ccc2O[C@@H]1CN(C)CC1CCCCC1 | -0.6
O=C(O)CNS(=O)(=O)c1ccccc1 | 0.6
O=C(N/N=C/c1nccs1)c1ccccn1 | -0.8
C[C@H]1CN([C@@H](C)CO)C(=O)c2cc(NS(=O)(=O)c3cn(C)cn3)ccc2O[C@@H]1CN(C)C | 1.7
C[C@H]1CN([C@@H](C)CO)C(=O)c2cccc(NC(=O)C3CC3)c2O[C@@H]1CN(C)Cc1ccc(C(=O)Nc2ccccc2N)cc1 | 0.9
Cc1ccc(S(=O)(=O)Nc2cccc3c2O[C@@H](CN(C)S(=O)(=O)c2ccc(F)cc2)[C@@H](C)CN([C@H](C)CO)C3=O)cc1 | 0.5
C[C@@H]1CN([C@@H](C)CO)C(=O)c2cccc(NS(C)(=O)=O)c2O[C@@H]1CN(C)C(=O)Nc1ccc(C(F)(F)F)cc1 | -1.4
C[C@@H]1CN([C@H](C)CO)C(=O)Cc2cc(NC(=O)NC3CCCCC3)ccc2O[C@@H]1CN(C)Cc1ccc(-c2ccccc2)cc1 | 1.6
CC(C)NC(=O)Nc1ccc2c(c1)CC(=O)N([C@H](C)CO)C[C@H](C)[C@@H](CN(C)S(=O)(=O)c1ccc(F)cc1)O2 | 0.5
O=C(NO)c1ccc(C(=O)N/N=C/c2cccc(B(O)O)c2)cc1 | -0.8
C[C@H](CO)N1C[C@H](C)[C@H](CN(C)CC2CCCCC2)Oc2ccc(NC(=O)Cc3cn(C)c4ccccc34)cc2CC1=O | -0.2
C[C@H](CO)N1C[C@H](C)[C@@H](CN(C)C)Oc2ccc(NC(=O)CCCN(C)C)cc2CC1=O | -0.1

A different layout for some results above.
canonical_smiles: C[C@H]1CN([C@@H](C)CO)C(=O)c2cccc(NS(C)(=O)=O)c2O[C@@H]1CN(C)C(=O)Nc1ccccc1
  A1 apoptosis 2: -1.3
canonical_smiles: O=C(N/N=C/c1nccs1)c1ccccn1
  A1 apoptosis 2: -0.8
canonical_smiles: CC(C)NC(=O)Nc1cccc2c1O[C@@H](CN(C)Cc1ccc(C(=O)Nc3ccccc3N)cc1)[C@@H](C)CN([C@H](C)CO)C2=O
  A1 apoptosis 2: -2.0
canonical_smiles: C[C@@H]1CN([C@@H](C)CO)C(=O)c2cccc(NS(C)(=O)=O)c2O[C@@H]1CN(C)C(=O)Nc1ccc(C(F)(F)F)cc1
  A1 apoptosis 2: -1.4

(further entries)
SMILES | A1 apoptosis 2
C[C@@H]1CN([C@H](C)CO)C(=O)Cc2cc(NC(=O)CCCCCC(=O)Nc3ccccc3N)ccc2O[C@H]1CN(C)S(=O)(=O)c1ccccc1 | -0.5
C[C@@H]1CN([C@H](C)CO)C(=O)CCCn2cc(nn2)CO[C@H]1CN(C)Cc1ccc2c(c1)OCCN2C | 1.5
C[C@H]1CN([C@@H](C)CO)C(=O)c2cccc(NC(=O)Nc3ccccc3)c2O[C@H]1CN(C)CC1CCCCC1 | 0.4
C[C@@H]1CCCCO[C@H](CN(C)C(=O)Nc2ccc(F)cc2)[C@@H](C)CN([C@@H](C)CO)C(=O)c2cc(NS(C)(=O)=O)ccc2O1 | -0.2
COc1ccc(S(=O)(=O)N(C)C[C@H]2Oc3c(NC(=O)c4ccc(-c5nccs5)cc4)cccc3C(=O)N([C@@H](C)CO)C[C@@H]2C)cc1 | -0.1
CC(C)NC(=O)N(C)C[C@H]1OCCCC[C@@H](C)Oc2ccc(NC(=O)Nc3ccc(C(F)(F)F)cc3)cc2C(=O)N([C@H](C)CO)C[C@@H]1C | -0.2
Cc1noc(C)c1S(=O)(=O)Nc1cccc2c1O[C@@H](CN(C)Cc1ccc3c(c1)OCO3)[C@@H](C)CN([C@H](C)CO)C2=O | -0.3
COc1ccc(NC(=O)N(C)C[C@@H]2Oc3ccc(NC(=O)Cn4cnnn4)cc3CC(=O)N([C@H](C)CO)C[C@H]2C)cc1 | -0.9
C[C@@H]1CN([C@@H](C)CO)C(=O)Cc2cc(NC(=O)Cc3ccccc3)ccc2O[C@@H]1CN(C)S(=O)(=O)c1cn(C)cn1 | -0.2
C[C@@H]1CN([C@@H](C)CO)C(=O)Cc2cc(NS(=O)(=O)c3cccs3)ccc2O[C@@H]1CN(C)Cc1ccccc1 | 0.0
C[C@@H]1CCCCO[C@@H](CN(C)S(=O)(=O)c2cn(C)cn2)[C@@H](C)CN([C@@H](C)CO)C(=O)c2cc(NC(=O)Nc3ccc4c(c3)OCO4)ccc2O1 | -0.1
Cc1ccc(S(=O)(=O)Nc2ccc3c(c2)C(=O)N([C@H](C)CO)C[C@@H](C)[C@H](CN(C)Cc2ccncc2)OCCCC[C@H](C)O3)cc1 | 0.5
Cc1cc(C(=O)Nc2cccc3c2O[C@@H](CN(C)Cc2ccc(C(=O)Nc4ccccc4N)cc2)[C@@H](C)CN([C@@H](C)CO)C3=O)n(C)n1 | 0.3
C[C@H]1CN([C@@H](C)CO)C(=O)c2cccc(NC(=O)Nc3cccc4ccccc34)c2O[C@H]1CN(C)S(=O)(=O)c1cn(C)cn1 | -1.5
CNC[C@H]1Oc2ccc(NC(=O)Nc3c(C)noc3C)cc2C(=O)N([C@H](C)CO)C[C@@H]1C | -0.7
C[C@@H]1CN([C@@H](C)CO)C(=O)CCCn2nncc2CO[C@H]1CN(C)C(=O)Nc1cccc(Oc2ccccn2)c1 | -1.3
Cc1ccc(S(=O)(=O)N(C)C[C@H]2Oc3ccc(NS(=O)(=O)c4cn(C)cn4)cc3C(=O)N([C@@H](C)CO)C[C@@H]2C)cc1 | -0.5
C[C@@H]1CCCCO[C@H](CN(C)C(=O)Cc2ccccc2)[C@H](C)CN([C@H](C)CO)C(=O)c2cc(NS(C)(=O)=O)ccc2O1 | 0.0
Cc1ccc(S(=O)(=O)Nc2ccc3c(c2)CC(=O)N([C@H](C)CO)C[C@H](C)[C@@H](CN(C)S(C)(=O)=O)O3)cc1 | 1.5
C[C@H]1CN([C@@H](C)CO)C(=O)CCCn2cc(nn2)CO[C@H]1CN(C)C(=O)c1ccc(N2CCN(C)CC2)cc1 | 0.3
C[C@H](CO)N1C[C@H](C)[C@@H](CN(C)C(=O)NC2CCCCC2)Oc2c(NC(=O)c3nc4ccccc4s3)cccc2C1=O | 0.2
C[C@H](CO)N1C[C@H](C)[C@@H](CN(C)S(=O)(=O)c2cccs2)Oc2c(cccc2N(C)C)C1=O | -1.5
C[C@H]1CN([C@@H](C)CO)C(=O)Cc2cc(N(C)C)ccc2O[C@@H]1CN(C)Cc1ccc(Oc2ccccc2)cc1 | 0.2
C[C@@H]1CCCCO[C@@H](CN(C)Cc2ccccc2)[C@H](C)CN([C@H](C)CO)C(=O)c2cc(NC(=O)Nc3ccc(F)cc3)ccc2O1 | -0.4
C[C@@H]1CCCCO[C@H](CN(C)C(=O)Nc2ccc3c(c2)OCO3)[C@H](C)CN([C@@H](C)CO)C(=O)c2cc(NC(=O)Nc3cccc4ccccc34)ccc2O1 | 0.1
C[C@H](CO)N1C[C@H](C)[C@H](CN(C)S(=O)(=O)c2ccc(F)cc2)Oc2c(NC(=O)C3CCOCC3)cccc2C1=O | 0.4
C[C@H](CO)N1C[C@H](C)[C@@H](CN(C)S(=O)(=O)c2cn(C)cn2)Oc2ccc(N(C)C)cc2CC1=O | -1.7
Cc1noc(C)c1NC(=O)N(C)C[C@H]1Oc2ccc(NC(=O)Nc3cccc4ccccc34)cc2CC(=O)N([C@H](C)CO)C[C@H]1C | -0.6
C[C@@H]1CCCCO[C@@H](CN(C)C(=O)c2ccccc2)[C@H](C)CN([C@@H](C)CO)C(=O)c2cc(NS(=O)(=O)c3ccccc3)ccc2O1 | 0.1
C[C@@H]1CCCCO[C@@H](CN(C)C(=O)C2CCCCC2)[C@H](C)CN([C@@H](C)CO)C(=O)c2cc(NC(=O)C3CCCCC3)ccc2O1 | 0.5
C[C@H](CO)N1C[C@H](C)[C@@H](CN(C)C(=O)c2ccccc2)OCCCC[C@H](C)Oc2ccc(NS(=O)(=O)c3ccc(Cl)cc3)cc2C1=O | 0.0
C[C@@H]1CCCCO[C@H](CN(C)C(=O)Nc2ccc3c(c2)OCO3)[C@H](C)CN([C@@H](C)CO)C(=O)c2cc(N(C)C)ccc2O1 | 0.7
C[C@H](CO)N1C[C@H](C)[C@H](CN(C)Cc2ccccc2)Oc2ccc(NS(=O)(=O)c3ccc(Cl)cc3)cc2CC1=O | -0.4
C[C@H](CO)N1C[C@H](C)[C@@H](CN(C)C(=O)Nc2ccccc2)OCc2cn(nn2)CCCC1=O | 0.4
CC(/C=C/C(=O)NO)=C\c1ccccc1OCc1cn(-c2cccc(C(=O)N3CCN(c4ccccc4)CC3)c2)nn1 | 0.7
C[C@H](CO)N1C[C@H](C)[C@@H](CN(C)C)Oc2ccc(NC(=O)Nc3ccc4c(c3)OCO4)cc2C1=O | 0.5
COc1ccc(S(=O)(=O)Nc2ccc3c(c2)C(=O)N([C@H](C)CO)C[C@H](C)[C@@H](CN(C)CC2CC2)OCCCC[C@H](C)O3)cc1 | -0.8
C[C@H]1CN([C@@H](C)CO)C(=O)Cc2cc(NC(=O)CCCCCC(=O)Nc3ccccc3N)ccc2O[C@@H]1CN(C)Cc1ccc(Cl)c(Cl)c1 | -0.4
COCCOC(=O)N1C(=O)[C@@]2(c3ccccc31)[C@H](c1ccccc1OCCO)N1[C@H](c3ccccc3)[C@H](c3ccccc3)OC(=O)[C@H]1[C@@H]2C(=O)N1CCN(c2ncccn2)CC1 | -1.3
C[C@H]1CN([C@@H](C)CO)C(=O)c2cc(NS(C)(=O)=O)ccc2O[C@@H]1CN(C)C(=O)Nc1ccc(F)cc1 | 0.7
Cc1noc(C)c1NC(=O)Nc1ccc2c(c1)C(=O)N([C@@H](C)CO)C[C@H](C)[C@@H](CN(C)S(=O)(=O)c1c(C)noc1C)OCCCC[C@H](C)O2 | -1.2
C[C@@H]1CN([C@@H](C)CO)C(=O)c2cc(NS(C)(=O)=O)ccc2O[C@H]1CN(C)Cc1ccc2c(c1)OCO2 | 0.0
CC(C)NC(=O)N(C)C[C@@H]1Oc2c(NC(=O)C3CCOCC3)cccc2C(=O)N([C@H](C)CO)C[C@H]1C | 1.5
COc1ccc(NC(=O)N(C)C[C@H]2Oc3c(NC(=O)C4CCCCC4)cccc3C(=O)N([C@H](C)CO)C[C@@H]2C)cc1 | 0.0
C[C@@H]1CN([C@@H](C)CO)C(=O)c2cccc(NS(=O)(=O)c3ccc(F)cc3)c2O[C@H]1CN(C)C(=O)Nc1ccccc1 | 0.7
C[C@@H]1CN([C@H](C)CO)C(=O)c2cccc(NC(=O)Nc3ccccc3)c2O[C@H]1CN(C)C(=O)Nc1cccc2ccccc12 | -1.2
COc1ccc(S(=O)(=O)Nc2ccc3c(c2)C(=O)N([C@@H](C)CO)C[C@H](C)[C@@H](CN(C)C(=O)CCC(F)(F)F)OCCCC[C@H](C)O3)cc1 | 0.9
C[C@@H]1CN([C@@H](C)CO)C(=O)c2cc(NC(=O)CCCCCC(=O)Nc3ccccc3N)ccc2O[C@@H]1CN(C)Cc1ccncc1 | 0.9
O=C(CCCCC(=O)N/N=C/c1cccc(Br)c1)NO | -0.9
CNC[C@@H]1Oc2c(NC(=O)C3CCOCC3)cccc2C(=O)N([C@@H](C)CO)C[C@H]1C | -0.3
COc1ccc(CN(C)C[C@H]2OCCCC[C@H](C)Oc3ccc(NS(=O)(=O)c4ccc(C)cc4)cc3C(=O)N([C@@H](C)CO)C[C@@H]2C)cc1 | -0.4
Cc1noc(C)c1NC(=O)Nc1ccc2c(c1)CC(=O)N([C@@H](C)CO)C[C@@H](C)[C@@H](CN(C)C(=O)NC1CCCCC1)O2 | 0.2

The list is partial; count on the stated rates, not on these rows.
